# Compound activity as filed in PubChem BioAssay.
# gsp ag: agonists of gsp mutant (McCune-Albright syndrome) | Potency, µM (series often up to 76.9 µM), for the others: top-dose activation (cAMP increase), actives largely listed as activators | 0.13% of 340,000 active | AID 624287 | gsp mutant cells, cAMP HTRF, 30 min; control for the full effect not named in the record; active = well fitted activation curve with a large enough effect; inconclusive = small, poorly fitted or top-dose-only effect, or another doubt; inactive = no such curve, though single readings can be large or run the other way; cell line not stated here;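 also: phosphodiesterase inhibitor Ro 20-1724 added with compounds to block cAMP breakdown; potency is read from the fitted curve at half-maximal effect; nearly all actives have a fitted effect of over 60% in size; about a fifth of the inactives were tested at one dose only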
#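 Cells in DMEM/10% FBS with G418 were pretreated with compounds in DMSO plus […] (300 uM stock) for 30 min at 37C. cAMP was measured by HTRF (cAMP-d2 plus anti-cAMP antibody-K) after 30 min at room temperature.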
# gsp antag: antagonizes gsp, the McCune-Albright syndrome mutation | gsp-mutant cells, cAMP HTRF, 30 min; control for the full effect not named in the record | Potency, µM (top dose mostly 76.9 µM), without a hit: at the top dose activity change, negative = inhibition, hits mostly inhibitors | 0.4% of 340,000 active | AID 624288; active = falling curve of any shape with a large fitted effect; inconclusive = falling curve, mostly with a smaller effect; inactive = flat or rising curve; cell line not stated here;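 also: intracellular cAMP measured with PDE inhibitor Ro 20-1724 present during compound exposure; potency is read from the fitted curve at half-maximal effect; % is scaled to controls: 0 for no effect and ±100 for the full control effect; nearly all actives have a fitted effect of over 65% in size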
#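 Measurement of cellular cAMP by homogeneous time-resolved fluorescence following a 30 min compound exposure at 37C. The PDE inhibitor […] was present throughout; the assay buffer was DPBS with 0.05% BSA and 0.005% Tween 20.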
# ClpP mod: qHTS Assay for Activators of ClpP; Potency, µM (highest dose often 57.5 µM), inactives show at the top dose activity change, negative = active; AID 651965, 2013; 1.9% of 340,000 active; purified B. subtilis ClpP, FRET peptide cleavage, 20 min; active = well fitted falling curve with a large enough effect; inconclusive = small, poorly fitted or top-dose-only effect; inactive = no such curve, though single readings can be large or run the other way; also: potency is read from the fitted curve at half-maximal effect; the source files actives as falling curves though it sought activators and does not explain the sign; nearly all actives have a fitted effect of over 65% in size; many hits overshoot -100%
# Target sequence (P80244 whole entry, looked up): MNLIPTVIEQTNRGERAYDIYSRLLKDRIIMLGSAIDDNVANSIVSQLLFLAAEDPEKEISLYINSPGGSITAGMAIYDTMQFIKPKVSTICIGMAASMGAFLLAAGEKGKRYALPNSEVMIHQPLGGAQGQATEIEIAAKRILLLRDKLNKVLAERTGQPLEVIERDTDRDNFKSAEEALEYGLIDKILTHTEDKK
#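 ClpP 10 microg/mL final, pH 8 Tris/KCl buffer with BSA, glycerol, Tween-20; compound pinned in; FRET-FV substrate; RT 20 min; Ex320/Em430; ΔFRET vs ADEP 5.8 microM, DMSO, no enzyme.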
# Sfp inh: inhibitors of Bacillus subtilis Sfp phosphopantetheinyl transferase; 3.5% of 310,000 active; Potency, µM, inactives show max response, negative = inhibition, usual class: inhibitors; Biochemical Sfp PPTase activity, qHTS; Q9F4F7; active = well fitted inhibition curve with a large enough effect; inconclusive = small, poorly fitted or top-dose-only effect, or another doubt; inactive = no such curve, though single readings can be large or run the other way;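 also: the enzyme is Sfp with the accession as filed and its product quenches rhodamine fluorescence; potency is read from the fitted curve at half-maximal effect; 0% = enzyme reaction without inhibitor and -100% = no enzyme wells; top concentration of the series not given in the record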
#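 Compounds were incubated with enzyme (final 15 nM) for 15 min at room temperature before substrate addition started the reaction. Fluorescence at 525 nm excitation, 598 nm emission was recorded immediately and after 30 minutes.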
# D2 ag: agonists of human D2 dopamine receptor (beta-arrestin). P14416. DiscoveRx PathHunter D2 beta-arrestin, luminescence, 90 min; 100% = 57 uM dopamine signal. activation, % (test concentration not listed). 0.084% of 360,000 active. AID 624465; in the data active = activation above about 40%; inconclusive = about 15% to 40%; inactive = below about 15%; also: compound concentration not given in the record; the text of the record calls up to 30% inactive
# Target sequence (P14416 whole entry, looked up): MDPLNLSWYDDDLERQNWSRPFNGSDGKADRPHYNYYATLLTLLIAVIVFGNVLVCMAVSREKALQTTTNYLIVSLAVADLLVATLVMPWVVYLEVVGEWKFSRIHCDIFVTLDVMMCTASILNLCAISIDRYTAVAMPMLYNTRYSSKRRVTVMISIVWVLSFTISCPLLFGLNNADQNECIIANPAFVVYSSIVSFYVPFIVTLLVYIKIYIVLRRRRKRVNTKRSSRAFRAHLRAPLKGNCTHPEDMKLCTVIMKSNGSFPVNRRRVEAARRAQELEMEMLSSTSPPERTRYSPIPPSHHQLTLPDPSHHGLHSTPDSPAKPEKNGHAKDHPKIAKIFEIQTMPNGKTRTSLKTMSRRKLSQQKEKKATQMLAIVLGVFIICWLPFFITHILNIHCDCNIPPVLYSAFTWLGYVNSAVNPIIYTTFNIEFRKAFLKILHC
#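 Agonist mode: compounds alone added to overnight-plated D2 PathHunter cells for 90 min at 37 C, with 57 uM final dopamine (EC100) defining full response. Beta-arrestin recruitment detected by chemiluminescent reagent, read after 1 h at ambient temperature.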
# PINK1 modulator: modulators of PINK1 expression; 0.2% of 410,000 active; Potency, µM (highest dose often 76.6 µM), for inactives: top-dose activation (PINK1 increase), hits mostly activators; PINK1 immunofluorescence, high-content cytometry, 24 h; active = well fitted activation curve with a large enough effect; inconclusive = small, poorly fitted or top-dose-only effect; inactive = flat fitted curve, though single readings scatter; cell line not stated here;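 also: potency is read from the fitted curve at half-maximal effect; % of control where 0% means no effect; nearly all actives have a fitted effect of over 65% in size; a mitochondrial uncoupler was the plate control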
#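 Cells are seeded, rested 12 hours, then given compound at five concentrations or DMSO for 24 hours. After fixation, blocking and antibody staining, PINK1 amount and mitochondrial localization are scored; CCCP serves as control.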
# Menin MLL FP FL: menin-MLL binding inhibition, fluorescein peptide; Fluorescence polarization, fluorescein-MLL peptide displacement from menin; FP activity change, % at 61.4 µM; 290,000 tested, under 10 active; AID 1766; inconclusive = falling polarisation curve, or a change in total fluorescence; inactive = total fluorescence flat and polarisation flat or rising; no compound was filed as active; the % refers to the polarisation; negative = inhibition;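 also: % of control where 0% means no effect; inhibitors lower the polarisation; unlabelled MLL peptide was the positive control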
# Starred values were filed as active, the others as inactive; ? = inconclusive; · = no result given; [ ] = another dose, or the depositor's remark.
canonical_smiles,Menin MLL FP FL,PINK1 modulator,gsp antag,Sfp inh,D2 ag,gsp ag,ClpP mod
Cn1cc(CN2CCN(Cc3ccc4c(c3)OCO4)CC2)c(-c2ccccc2F)n1,0.0,-0.3%,5%,4%,-8.3,4%,-2.1%
CCOc1c(O)ccc(C2NC(=O)NC(C)=C2C(=O)OC)c1[N+](=O)[O-] (centres undefined),3.5,1.8%,0%,-10%,0.9,-21%,·
CCn1ccnc1CNC(=O)c1cc(COc2ccc(F)cc2F)on1,6.5,1.0%,9%,-13%,-4.1,-5%[15.4 µM],·
COC(=O)c1sc(NC(=S)NC(=O)c2cccc(C)c2)nc1C,0.2,9.1%,7%,21%,-1.9,-5%,24%
Cc1ccc(C(=O)COC(=O)CNC(=O)c2cccs2)cc1C,3.6,0.4%,5%,5%,1.7,-28%,1.7%
COc1ccc(NC(=O)N2CC[C@@]3(CCCN(C(=O)c4c(C)noc4C)C3)C2)cc1,4.2,0.4%,·,1%,·,·,·
CCn1c(SCC(=O)NNC(=O)c2ccc(OC)cc2)nnc1C1CC1,-0.7,-0.5%,16%,3%,-2.3,-15%[15.4 µM],·
O=C(NCCc1ccccc1)/C(=C\c1ccc([N+](=O)[O-])cc1)NC(=O)c1ccco1,-1.9,1.1%,-5%,14%,-3.3,-3%,0.9%
O=C(CSc1nnc(-c2ccccn2)o1)Nc1cccc(Cl)c1,1.4,8.1%,-6%,-5%,2.5,-13%[15.4 µM],·
O=C1OCCN/C1=C\C(=O)c1ccc(Cl)cc1,5.5,-0.8%,-4%,5%,-0.5,-3%[15.4 µM],·
COc1ccccc1C(CNC(=O)c1ccc(OCc2c(C)noc2C)cc1)N1CCCC1 (centres undefined),·,-0.9%,-4%,·,0.7,11%,-5.8%
Cc1cc(C)c(NC(=S)NCC2CCN(C(C)c3ccccc3)C2)c(C)c1 (centres undefined),-1.5,4.7%,8%,3.5µM*,-5.4,24%,·
CC(=O)N1CCc2c(sc(NC(=O)CCS(=O)(=O)c3ccc(C)cc3)c2C(N)=O)C1,·,2.1%,-7%,·,-2.0,5%[15.4 µM],·
CC(=O)Nc1ccc(NC(=O)COC(=O)COc2ccc3ccccc3c2)cc1,·,1.1%,-6%,·,1.0,10%[15.4 µM],-0.2%
CN(Cc1ccccc1)C(=O)COC(=O)c1cc(-c2ccc(Cl)s2)nc2ccccc12,2.9,-0.8%,-15%,-16%,-0.5,?,11µM*
Cc1ccc2[nH]c3c(c2c1)CC/C(=C/c1ccccc1)C3=O,1.7,15%,-3%,1%,2.2,13%,1.5%
O=C(c1cc(C2CCCCN2C(=O)CCCc2ccccc2)on1)N1CCOCC1 (centres undefined),·,0.5%,·,·,-5.1,·,0.8%
COC(=O)CC1C(=O)NCCN1C(=O)c1cc([N+](=O)[O-])ccc1Cl (centres undefined),1.5,0.0%,3%,19%,4.4,4%[15.4 µM],-3.7%
O=c1c2cc(NC(=S)NCc3ccccn3)ccc2nc2n1CCCCC2,-2.5,-0.1%,-2%,-9%,0.3,15%,-1.7%
COc1ccc2[nH]c3c(c2c1)CCN1C(=O)N([C@@H](C)C(=O)NC2CCCC2)C(=O)[C@]31C,-1.3,4.1%,-3%,9%,2.4,·,-0.1%
O=C(NC1CCCCC1)c1n[nH]c2c1CCCCC2,·,-1.5%,-2%,·,-0.3,·,-0.6%
O=C(CCC1CCCCC1)Nc1ccccc1O,9.3,-0.4%,-10%,-2%,0.8,7%,-0.5%
O=C(COC(=O)c1ccc2ccccc2n1)Nc1ccccc1Br,·,1.0%,-7%,·,3.7,3%,·
O=C(Nc1ccc(Br)cc1)NC1CCCCCCC1,-2.9,?,-30%,-6%,-4.3,25%,0.1%
COc1ccc(NS(=O)(=O)c2cccc(C(=O)N/N=C(\C)c3ccc(-n4ccnc4)cc3)c2)cc1,-4.9,19%,17%,-3%,2.2,-36%[inhibitor],36%
COc1ccc(CCc2ccc3ccccc3n2)cc1,·,-0.5%,-2%,·,0.1,?,·
CC1=NN(C(C#N)c2ccc(F)cc2)C(c2ccccc2)C1 (centres undefined),-0.7,2.0%,-3%,11%,6.2,-16%[15.4 µM],3.8%
C(=N\c1nc2ccccc2n1CCN1CCCCC1)/c1ccc2c(c1)OCO2,4.0,0.1%,12%,0%,1.1,0%,-8.5%
O=C1NC(=O)/C(=C\c2ccc(Br)o2)S1,?,0.1%,-20%,?,-7.4,0%,-5.2%
CCOC(=O)c1cc2c(=O)n3ccccc3nc2n(CCCOC)c1=NC(=O)c1ccncc1,9.3,4.4%,-30%,11%,-6.7,8%[15.4 µM],·
COc1ccc(-c2cc(-c3ccc(OC)cc3)[nH]n2)cc1,1.8,-5.3%,-5%,-15%,-1.3,-5%,-0.6%
CCOC(=O)C1CCN(S(=O)(=O)CCNC(=O)c2ccc3c(c2)OCO3)CC1,·,0.3%,5%,·,3.6,7%[15.4 µM],0.2%
COc1ccc2[nH]c(C)c(CCN(Cc3cccs3)C(=S)Nc3ccccc3OC)c2c1,?,-0.5%,-21%,24%,10,-27%,-3.6%
O=C(NC1CCCC1)c1nc2c(nnn2Cc2cccc(Cl)c2)c(=O)[nH]1,1.0,-0.7%[38.3 µM],?,-26%,0.4,-18%,-1.2%
CCOc1ccccc1NC(=S)N1CCN(c2ccccc2)CC1,0.4,0.6%,-5%,7%,4.3,1%,0.9%
Oc1cccc(-c2ccc3nccn3c2)c1,·,0.6%,·,·,-3.7,·,4.0%
O=C(Nc1ccc(F)cc1)c1ccccc1,1.1,1.6%[38.3 µM],6%,-2%,-0.2,-46%[inhibitor],0.6%
Cc1ccc(-c2nnc(N)s2)cc1,3.2,-0.3%,17%,0%,-1.6,2%,-27%
CN(C)C(=S)NC1CCS(=O)(=O)C1 (centres undefined),-0.1,1.1%,14%,18%,5.1,-11%[15.4 µM],·
O=C(c1cccn(Cc2cccc(Cl)c2)c1=O)N1CCOCC1,0.3,-3.2%[38.3 µM],7%,2%,-1.6,-44%[inhibitor],2.3%
COc1ccc(Nc2nc(C)c(-c3ccccc3)s2)cc1,4.1,4.4%,-14%,?,4.3,?,-18%
Cc1cc(C)cc(N(CCC#N)C(=O)COC(=O)C2CCN(c3ccc(C(F)(F)F)cn3)CC2)c1,·,4.3%,1%,·,-0.9,-1%,?
COc1cc(NC(=O)COc2ccc([N+](=O)[O-])cc2)ccc1NC(=O)c1ccco1,·,1.1%,·,·,0.5,4%,0.6%
COc1ccc(-n2nnnc2SCC(=O)Nc2c(C)n[nH]c2C)cc1,·,7.9%,-1%,·,-2.5,0%[15.4 µM],-1.9%
CCCCN1CC(COCc2ccccc2)Oc2cccc(Oc3ccc(F)cc3)c2S1(=O)=O (centres undefined),·,-1.0%,-7%,·,-4.8,·,-1.2%
O=c1c2cn(Cc3ccc(F)cc3)c3ccccc3c-2nn1Cc1ccc(F)cc1,-24,0.3%,13%,-1%,2.8,2%,·
N#Cc1ncc(Cc2ccccc2)nc1C#N,7.5,3.0%,-11%,0%,2.0,-1%,-2.5%
CCOCCCNC(=O)Cn1ncc2c(=O)oc3ccccc3c21,1.7,2.5%,1%,5%,-4.7,-39%[inhibitor],1.9%
O=C(NCc1cccs1)NC1CCCCC1,0.7,-1.9%,-8%[15.4 µM],14%,-0.6,-4%,-1.9%
O=C(NCCCc1ccccc1)c1cccs1,1.7,5.0%[38.3 µM],-1%,17%,-1.5,4%,-1.7%
Cc1cccc(C)c1NC(=O)C1C2C=CC(C2)C1C(=O)NCc1ccccn1 (centres undefined),4.2,-3.1%[38.3 µM],8%,0%,-0.4,?,-2.6%
CC(C)CCNC(=O)COC(=O)c1cc(Br)c(Br)s1,-3.2,11%,-44%,12%,0.7,19%[15.4 µM],·
COc1ccc(N/C(N)=N/c2nc(C)cc(C)n2)cc1,·,0.5%,·,·,-2.1,-8%,-0.5%
CCCn1c(CCC(=O)O)ccc1-c1ccccc1,-2.7,-1.2%,0%,-26%,0.5,-2%[15.4 µM],·
CN1C(=S)SC(C)(C)C1N(O)C(=O)Nc1ccc(Cl)cc1 (centres undefined),2.6,2.2%,-15%,22%,9.7,14%[15.4 µM],·
CCCCNS(=O)(=O)c1ccc(OC)c(C)c1,-0.7,6.3%,-4%,-4%,0.2,-16%,-3.0%
O=C(Nc1ccc(F)cc1F)c1c(C(F)(F)F)ccnc1Oc1ccccc1,0.7,12%,1%,7%,0.3,8%,·
COc1cccc(/C=N/Nc2ncc(C)c(=O)[nH]2)c1OC,3.5,-2.1%,-4%,-5%,1.9,-1%,3.4%
Cn1c(CN2CCCC2)nc2cc(NC(=O)c3ccc(Cl)cc3)ccc21,12,1.7%,-4%,-21%,-0.2,13%[15.4 µM],-2.1%
C=CCNC(=O)c1c(N)n(-c2cccc(S(N)(=O)=O)c2)c2nc3ccccc3nc12,-1.9,-0.3%,-5%,-10%,1.0,?,14µM*

# Next part
canonical_smiles,Menin MLL FP FL,PINK1 modulator,gsp antag,Sfp inh,D2 ag,gsp ag,ClpP mod
CCCC1=C/C(=C/c2ccc(-c3ccccc3OC)o2)C(=O)O1,23,4.1%,?,?,-2.6,12%,?
CCOc1cc(C2NC(=O)N(C)C(C)=C2[N+](=O)[O-])ccc1OC(C)=O (centres undefined),2.0,1.7%,1%,-5%,-1.0,-29%,1.0%
COC(=O)c1c(-c2ccccc2)c[nH]c1C,2.5,2.9%,-26%,5%,0.5,-15%[15.4 µM],0.6%
O=C(CSCc1ccccc1)NCc1ccc2c(c1)OCO2,1.1,-2.9%,-8%,8%,-2.3,-41%[inhibitor],1.3%
Cc1cc(C)n2nc(C(=O)OCCOc3cccc(Br)c3)nc2n1,3.6,-0.2%,-2%,4%,-5.0,-26%,-3.0%
CN(C)S(=O)(=O)c1ccc(NC(=O)c2ccc3ncsc3c2)cc1,5.3,0.2%,-5%,6%,-4.9,8%,-0.5%
COc1ccc(OC)c(NC(=O)CSc2nnc(Cc3cccn3C)n2-c2ccc(F)cc2)c1,5.7,1.1%,-12%,-8%,3.8,-33%[inhibitor],0.8%
